Compound activity from PubChem BioAssay.
ClpP mod = qHTS Assay for Activators of ClpP. ATP-dependent Clp protease proteolytic subunit (Bacillus subtilis (strain 168)), P80244. purified B. subtilis ClpP, FRET peptide cleavage, 20 min. Potency, µM (top dose mostly 57.5 µM), inactives show at the highest dose activity change, negative = active. 1.9% of 340,000 active. AID 651965, 2013; active = well fitted falling curve with a large enough effect; inconclusive = small, poorly fitted or top-dose-only effect; inactive = no such curve, though single readings can be large or run the other way; note: potency is the fitted concentration of half-maximal effect; the source files actives as falling curves though it sought activators and does not explain the sign; nearly all actives have a fitted effect of over 65% in size; many hits overshoot -100%
Target sequence (P80244 whole entry, looked up): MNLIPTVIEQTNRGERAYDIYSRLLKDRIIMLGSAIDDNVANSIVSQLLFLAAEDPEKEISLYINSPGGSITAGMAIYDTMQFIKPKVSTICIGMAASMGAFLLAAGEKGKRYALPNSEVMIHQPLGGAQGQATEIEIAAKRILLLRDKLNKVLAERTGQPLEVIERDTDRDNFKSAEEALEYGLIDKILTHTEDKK
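Buffer: 100 mM Tris/HCl pH8, 100 mM KCl, 0.05% low protease BSA, 2.5% glycerol, 0.01% Tween-20. ClpP 10 microg/mL final; 20 min RT; delta FRET normalized to ADEP and DMSO controls.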
Sfp inh = blocks B. subtilis Sfp PPTase activity. Q9F4F7. Biochemical Sfp PPTase activity, qHTS. Potency, µM, inactives show max response, negative = inhibition, most hits filed as inhibitors. 3.5% of 310,000 active. AID 1490; active = well fitted inhibition curve with a large enough effect; inconclusive = small, poorly fitted or top-dose-only effect, or another doubt; inactive = no such curve, though single readings can be large or run the other way;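 note: the enzyme is Sfp with the accession as filed and its product quenches rhodamine fluorescence; potency is the fitted concentration of half-maximal effect; 0% = enzyme reaction without inhibitor and -100% = no enzyme wells; top concentration of the series not given in the record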
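Sfp 15 nM + cpd, 15 min RT; start w/ rhodamine-CoA 5 uM, BHQ-2-YbbR 12.5 uM (final); 50 mM Hepes pH 7.6, 10 mM MgCl2, 0.01% NP-40, 0.01% BSA; read 525/598 nm at 0 and 30 min.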
Menin-MLL FL inh = menin-MLL binding inhibition, fluorescein peptide; Fluorescence polarization, fluorescein-MLL peptide displacement from menin; FP activity change, % at 61.4 µM; 290,000 tested, under 10 active; AID 1766; inconclusive = falling polarisation curve, or a change in total fluorescence; inactive = total fluorescence flat and polarisation flat or rising; no compound was filed as active; the % refers to the polarisation; negative = inhibition;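 note: % of control where 0% means no effect; inhibitors lower the polarisation; unlabelled MLL peptide was the positive control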
TRPV1 potentiator = human TRPV1 potentiation | TRPV1-expressing cells, Fluo-8 calcium influx, capsaicin EC20 potentiation; host cell line not named in the record; control for the full effect not named in the record | potentiation, % at 8.33 µM | 0.02% of 320,000 active | AID 540277; active means potentiation above 80%; inconclusive means 30% to 80%; inactive means below 30%; note: 0% is about no effect
Target sequence (Q8NER1 whole entry, looked up): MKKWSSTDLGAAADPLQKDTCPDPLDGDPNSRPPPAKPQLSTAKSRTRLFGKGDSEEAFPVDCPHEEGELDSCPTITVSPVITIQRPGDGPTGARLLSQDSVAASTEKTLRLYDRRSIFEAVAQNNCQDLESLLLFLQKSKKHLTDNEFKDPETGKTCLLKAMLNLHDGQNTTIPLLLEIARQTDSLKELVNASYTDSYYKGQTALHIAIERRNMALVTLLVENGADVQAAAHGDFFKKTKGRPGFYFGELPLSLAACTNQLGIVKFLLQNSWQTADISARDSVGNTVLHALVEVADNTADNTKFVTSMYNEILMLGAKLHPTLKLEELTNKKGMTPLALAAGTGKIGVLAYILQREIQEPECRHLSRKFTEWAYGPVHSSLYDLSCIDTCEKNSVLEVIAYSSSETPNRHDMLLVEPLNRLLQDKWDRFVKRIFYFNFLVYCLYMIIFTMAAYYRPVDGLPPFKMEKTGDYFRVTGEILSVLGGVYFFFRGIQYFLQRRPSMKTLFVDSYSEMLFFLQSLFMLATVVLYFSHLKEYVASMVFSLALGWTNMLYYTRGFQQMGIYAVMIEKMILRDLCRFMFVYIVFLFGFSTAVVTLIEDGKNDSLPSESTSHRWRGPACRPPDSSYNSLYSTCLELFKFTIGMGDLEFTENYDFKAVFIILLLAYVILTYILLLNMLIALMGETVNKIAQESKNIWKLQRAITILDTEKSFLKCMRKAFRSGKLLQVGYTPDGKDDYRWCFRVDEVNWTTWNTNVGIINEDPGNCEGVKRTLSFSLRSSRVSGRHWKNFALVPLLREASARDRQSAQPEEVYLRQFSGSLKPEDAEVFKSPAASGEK
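Cells expressing TRPV1 were dye-loaded with Fluo-8 and read kinetically: 10 s baseline, 3 min after compound (agonist portion), then 2 min after EC20 capsaicin (allosteric enhancer portion). Calcium-bound dye fluorescence at 480/520 nm.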
CtBP-E1A inh = CtBP/E1A binding inhibition; activity change, % (concentration not given with the values); 0.49% of 340,000 active; AID 651724; AlphaScreen GST-E1A/His-CtBP binding, 1536-well; hits give low values; control for the full effect not named in the record; in the data active means activity change below about -65%; inconclusive means about -30% to -65%; inactive means above about -30%; note: % is set by controls: 0 for no effect and ±100 for the full control effect
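Protein mix (5X: 125 nM each GST-E1A, His-CtBP) was incubated with pinned compound 2 h at 37 deg C in dark, in 50 mM Tris pH 8.0 buffer with 300 mM NaCl. Glutathione donor and nickel acceptor beads followed; AlphaScreen signal read after 1 h.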
gsp antag = antagonizes gsp, the McCune-Albright syndrome mutation. AID 624288. 0.4% of 340,000 active. gsp-mutant cells, cAMP HTRF, 30 min; control for the full effect not named in the record. Potency, µM (titrated, usually from 76.9 µM), for the others: top-dose activity change, negative = inhibition, actives largely listed as inhibitors; active = falling curve of any shape with a large fitted effect; inconclusive = falling curve, mostly with a smaller effect; inactive = flat or rising curve; cell line not stated here;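 note: intracellular cAMP measured with PDE inhibitor Ro 20-1724 present during compound exposure; potency is the fitted concentration of half-maximal effect; % is set by controls: 0 for no effect and ±100 for the full control effect; nearly all actives have a fitted effect of over 65% in size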
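Measurement of cellular cAMP by homogeneous time-resolved fluorescence following a 30 min compound exposure at 37C. The PDE inhibitor […] was present throughout; the assay buffer was DPBS with 0.05% BSA and 0.005% Tween 20.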
gsp agonist = activates gsp, the McCune-Albright syndrome mutation. 0.13% of 340,000 active. Potency, µM (doses to about 76.9 µM), without a hit: top-dose activation (cAMP increase), most hits filed as activators. gsp mutant cells, cAMP HTRF, 30 min; control for the full effect not named in the record. AID 624287; active = well fitted activation curve with a large enough effect; inconclusive = small, poorly fitted or top-dose-only effect, or another doubt; inactive = no such curve, though single readings can be large or run the other way; cell line not stated here;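 note: phosphodiesterase inhibitor Ro 20-1724 added with compounds to block cAMP breakdown; potency is the fitted concentration of half-maximal effect; nearly all actives have a fitted effect of over 60% in size; about a fifth of the inactives were tested at one dose only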
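Cells stably selected in G418 were plated at 2000/well, grown 16-24 hr, then given compounds in DMSO with the PDE inhibitor […] (300 uM solution added) for 30 min at 37C; cAMP was read by HTRF.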
Numbers without * were called inactive; ? = inconclusive; nt = no result given; & = joins results of further samples; [ ] = dose if it differs, or a comment.

SMILES	ClpP mod	Sfp inh	Menin-MLL FL inh	TRPV1 potentiator	CtBP-E1A inh	gsp antag	gsp agonist
Cc1ccc(NS(=O)(=O)N2CCOCC2)cc1Cl	-2.8%	10%	-0.2	1	2	9%	15%
CC(C)(C)C(=O)NC1CC2CCCC(C1)N2C(=O)Nc1cccc(Cl)c1 (stereo not given)	1.3%	-6%	0.2	-18	6	3%	-10%
CSCCC(NC(N)=O)C(=O)N(C)CC(=O)Nc1cc(C)ccc1C (stereo not given)	0.7%	-2%	0.8	2	6	6%	1%
COC(=O)CCCC1=CC2=CC(=O)C(C)(OC(=O)c3cccs3)C(=O)C2=CN1CCCCO (stereo not given)	0.4%	10%&-9%	-7.1[11.7 µM]	?	-2	5%	nt
CCC(Sc1nc(-c2ccccc2)c(C#N)c(=O)[nH]1)C(=O)Nc1cc(C)on1 (stereo not given)	-4.3%	27%	5.7	-13	6	24%	?
CC(C)c1nc2oc3ccccc3c(=O)c2c(=O)n1-c1ccccc1	0.2%	-5%	-0.3	10	3	20%	4%
Cn1c(NC(=O)C[n+]2cc(-c3ccc(F)cc3)n3c2CCC3)cc(=O)n(C)c1=O	-1.3%	4%	?	10	2	10%	-4%
O=C(NCCCn1ccnc1)c1cccc(S(=O)(=O)Nc2ccc(F)cc2)c1	1.7%	nt	nt	-5	7	4%	3%[15.4 µM]
CCOc1ccc2nc3c(cc2c1)CN(CCOC)C(=NC)S3	-30%	19%	-2.1	4	3	5%	13%
CCOC(=O)N1CCN(Cc2nc3c(c(=O)n(C)c(=O)n3C)n2Cc2cccc3ccccc23)CC1	-2.6%	-2%	2.8	-1	-3	?	-41%[inhibitor]
O=C(N/N=C/c1cccc(Oc2ccc([N+](=O)[O-])cc2[N+](=O)[O-])c1)c1cncc(Br)c1	-1.9%	?	1.0	9	0	-2%	-53%[inhibitor]
Cc1cc(C)c(OCC(=O)OCC(=O)N2CCN(C(=O)c3ccco3)CC2)c(C)c1	-0.5%	nt	nt	-2	-7	6%	-16%
CCc1ccc(-c2cn3nc(-c4ccccc4)cnc3n2)cc1	-1.1%	9%	2.5	1	nt	0%	-2%
CC1CC(=O)N(Cc2ccccc2)c2ccccc2N1C=O (stereo not given)	2.5%	17%	1.5	-8	1	8%	1%
CCN(C[C@H]1N[C@@](Cc2ccccc2)(C(=O)OC)[C@H]2C(=O)N(C)C(=O)[C@@H]12)S(=O)(=O)c1ccc(C(F)(F)F)cc1	0.2%	nt	nt	nt	5	-29%	nt
C[C@@H](NC(=O)c1[nH]cnc1C(=O)Nc1cccc(Cl)c1)c1ccccc1	175%	nt	nt	0	2	-7%	nt
CCOC(=O)c1c(N)sc2c1C1CCN2CC1	-2.8%	1%	1.0	14	-3	7%[15.4 µM]	-17%
CC1CCCN(CC(=O)NNC(=O)COc2ccc(Br)cc2)C1 (stereo not given)	-0.5%	nt	nt	nt	-1	13%	-18%[15.4 µM]
COc1ccc(S(=O)(=O)N2CCOCC2)cc1NC(=O)COc1cccnc1[N+](=O)[O-]	0.2%	1%	0.2	-3	?	3%	?
Nc1nnc(SCC(=O)Nc2ccccc2)s1	0.8%&-0.4%	6%	0.1	-4	14	5%	-3%[15.4 µM]
O=C(COC(=O)c1ccc(Cl)nc1)NC1CCCCCC1	-3.1%	nt	nt	2	-13	1%	8%
COc1cc(-c2nc3ccc(C)cn3c2NCc2ccccc2)ccc1SC1CCCCC1	3.7%	nt	nt	?	-2	-11%	nt
CCOc1ccc(N2C(=O)CC(SC(=NC)Nc3cccc(OC)c3)C2=O)cc1 (stereo not given)	2.3%	6%	1.8	-11	4	-19%	-26%
Cc1nn2c(N3CCOCC3)cc(C(C)C)nc2c1-c1ccccc1	-2.8%	4%	4.2	3	6	5%	-11%
CN(C)c1ccc(/C=N/N2CCN(Cc3ccccc3Cl)CC2)cc1	-3.7%	-5%	-2.2	0	-14	3%	-19%

Further compounds.
SMILES	ClpP mod	Sfp inh	Menin-MLL FL inh	TRPV1 potentiator	CtBP-E1A inh	gsp antag	gsp agonist
COc1ccc(-c2cc(NC(=O)c3cncn3-c3ccccc3)ccc2OC)cc1	1.1%	-3%	8.1	-1	-5	-9%	11%[15.4 µM]
C=CCn1c(NCc2ccc3c(c2)OCO3)nc2ccccc21	-2.1%	9%	-0.2	11	-2	4%[15.4 µM]	10%
COC(=O)C1=C(C)N(Cc2ccccc2)C(=S)N[C@H]1c1cccc(F)c1	-0.9%	1%&-10%	6.6&3.5	-12&-7	-11	5%	-30%[inhibitor]
Cc1ccc(NC(=O)COc2cccnc2[N+](=O)[O-])cc1S(=O)(=O)N1CCOCC1	nt	23%	2.9	2	1	1%	-9%[15.4 µM]
COc1ccc(/C=C2/N=C(SC)NC2=O)cc1OC	-10%	1%	-1.6	0	2	-18%	10%[15.4 µM]
CC1CCCN(C(=O)CSc2nnc(-c3c[nH]c4ccccc34)o2)C1 (stereo not given)	-5.5%	5%	1.0	?	-7	-27%	-9%
COc1cccc(NC(=O)CSc2nnc(CNC(=O)c3ccco3)n2C)c1	nt	nt	nt	6	-6	-2%	5%[15.4 µM]
O=C(c1ccccc1Br)N1N=C(c2ccccc2)CC1c1ccccc1F (stereo not given)	1.6%	-4%	-1.3	-6	nt	?	-11%
FC(F)(F)c1cccc(NC(=S)NCc2ccccc2)c1	-0.6%	20%	3.7	-19	19	-13%	-33%[inhibitor]
Cc1ccc(NC(=O)C(SCC(=O)O)c2ccccc2)cc1C (stereo not given)	-1.3%	15%	2.6	-10	11	4%	9%
Cc1nn(-c2ccccc2)c(C)c1NC(=O)COC(=O)c1ccc(Cl)c(N)c1	?	nt	nt	8	-4	-5%	2%
CSc1ccccc1-c1nnc(-c2ccc(Cl)cc2Cl)o1	35µM*	-1%	0.8	20	3	7%	?
Cc1cc(C)c(NC(=O)C2CCCN2CCOC(=O)c2cccc([N+](=O)[O-])c2)c(C)c1 (stereo not given)	0.0%	0%	2.9	-8	nt	-10%	?
COc1ccc(N2CCN(c3ncccc3C#N)CC2)cc1	-1.5%	12%	1.5	6	-23	8%	-1%[15.4 µM]
O=C(Cn1cc([N+](=O)[O-])cn1)Nc1ccn(Cc2c(F)c(F)cc(F)c2F)n1	-0.6%	15%	-1.3	-1	-3	11%	-24%
O=C(COC(=O)CCC(=O)c1ccc(F)cc1)NCc1ccc(Cl)cc1	nt	nt	nt	nt	-4	-3%	-4%
COc1cc2c(cc1OC)CN(C(=O)c1nn(Cc3ccccc3)c(=O)c3ccccc13)CC2	-2.8%	nt	nt	3	-16	?	-35%[inhibitor]
COc1ccc(-c2[nH]nc3c2C(c2ccsc2)C(C#N)=C(N)O3)cc1 (stereo not given)	-1.8%	5%	3.8	4	-4	-24%	-10%
O=C(COC(=O)Cc1cccc(C(F)(F)F)c1)Nc1ccccc1	5.2%	44%[activator]	2.1	-4	-10	14%	0%
CCOc1ccc(/C=C2\SC(=O)N(CCNC(=O)C3COc4ccccc4O3)C2=O)cc1OC (stereo not given)	-5.6%	4%	1.7	11	-3	28µM*	-5%
Cc1ccc(CSCCNC(=O)/C=C/c2ccc(Cl)cc2)cc1	-4.8%	7%	4.4	-18	3	3%	-5%
Cn1c(=O)[nH]c(=O)c2c1nc(N1CCOCC1)n2CCCSc1ncccn1	-2.1%	10%	4.1	-18	8	2%	44%
COc1ccc(S(=O)(=O)O)cc1P(=O)(c1ccccc1)c1ccccc1	nt	17%	-2.9	-8	0	1%	20%
COc1ccc(OC)c(NC(=O)C2CCCN2C(=O)C2CCC(C)CC2)c1 (stereo not given)	1.2%	18%	1.7	nt	-2	-1%	-23%
O=C(O)c1ccc(-n2cccc2/C=C2/NC(=O)N(c3cccc(Cl)c3)C2=O)cc1	-3.4%	?	19	10	-18	-9%	18%

The list continues.
SMILES	ClpP mod	Sfp inh	Menin-MLL FL inh	TRPV1 potentiator	CtBP-E1A inh	gsp antag	gsp agonist
Cc1[nH]oc(=O)c1N=Nc1ccccc1	0.9%	-22%	0.3	14	9	?	24%
O=C(Nc1cccc(NC(=O)c2ccc(Cl)cc2Cl)c1)c1cccnc1	nt	23%	7.9	-15	0	-18%	16%[15.4 µM]
CCn1cc(C(=O)NNC(=O)c2ccc(Cl)cc2)c(=O)c2ccc(C)nc21	nt	29%	1.6	-2	nt	nt	nt
COc1ccc(CNC(=O)COc2cc(=O)n(C)c3ccccc23)cc1	nt	17%	-2.1	-3	0	4%	4%[15.4 µM]
CCN1CCN(c2c(C=O)c(Cl)nc3ccc(OC)cc23)CC1	0.4%	37%[activator]	0.1	5	nt	-4%	9%
CCOc1ccc(NC(=O)CSc2nnc(C34CC5CC(CC(C5)C3)C4)n2C)cc1	1.1%	8%	-0.1	11	4	-5%	0%
COc1ccc(C(=O)NCCc2c[nH]c3ccccc23)cc1S(=O)(=O)N1CCOCC1	1.0%	9%	2.8	-3	9	-9%	?
COC(=O)c1ccc[n+](CC(=O)c2ccc(Br)cc2)c1	1.2%	1%	-2.7	-2	10	-1%	5%[15.4 µM]
Cc1cn2c(N)c(/C=C3\C=Nc4ccccc43)c(=O)nc2s1	nt	4%	1.4	nt	-9	-3%	1%[15.4 µM]
COc1ccc(CC(=O)NC2CCN(Cc3nnnn3C(C)(C)C)CC2)cc1OC	-3.4%	4%	4.4	-9	4	6%	-12%
O=C(Nc1cc(Cl)cc(Cl)c1)c1cnn2cccnc12	1.8%	7%	18	1	1	14%	26%
O=C(N/N=C/c1ccccn1)c1ccccc1	-1.5%	?	-0.5	?	?	3%	22%
CC1(C)CC(=O)C(C(=O)Cc2ccccc2[N+](=O)[O-])C(=O)C1	-1.5%	11%	2.0	7	4	3%	-32%[inhibitor]
Nc1cc(C(=O)O)c(N)c2c1C(=O)c1ccccc1C2=O	0.5%	?	?	-9	-92*	?	-123%[inhibitor]
Cc1nc2c3cc(Cl)ccc3n(CCN3CCOCC3)c2s1	0.9%	12%	-2.5	11	-1	-12%	13%[15.4 µM]
CN(C)C(=O)c1ccc(NC(=O)c2cccc(S(=O)(=O)N3CCCc4ccccc43)c2)cc1	nt	nt	nt	6	0	-32%	2%[15.4 µM]
